Vaccinia stage = blocks a specific stage of Vaccinia orthopoxvirus infection, primary screen, cell-based, single point | Vaccinia-infected cells, mCherry/Venus stage reporter fluorescence; active compounds read low; some inactives read as strong as hits | 89,000 compounds, 0.01% hits | activity change (mCherry), % (test concentration not listed) | AID 1053133, 2014;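 active = mCherry past -33% and 40 or more points under the early reporter, replicates agreeing; inconclusive = past -33% without that gap or agreement; tested in A549 cells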;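 also: scaled between vehicle wells and reference inhibitor wells; 23 nL library stock went into each well; one replicate is shown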
Vaccinia stage Venus = further read-out of Vaccinia stage, marked with its call; activity change (Venus), %; measured here: Venus reporter, other viral stage;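 negative = less Venus signal; first of two replicates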
* marks the source's active call; other numbers are inactive results; ? = inconclusive; / = not tested or not shown. Some of the compounds tested. The share of hits here may be higher or lower than overall.

SMILES	Vaccinia stage	Vaccinia stage Venus
C[C@H](CO)N1C[C@H](C)[C@H](CN(C)C(=O)NC2CCCCC2)Oc2ccc(NC(=O)Cc3cn(C)c4ccccc34)cc2C1=O	12	-2
C[C@H](NC(=O)C[C@H]1C[C@@H]2c3cc(NC(=O)NC4CCCC4)ccc3O[C@@H]2[C@H](CO)O1)c1ccccc1	15	13
O=C(Nc1ccc2c(c1)[C@@H]1C[C@@H](CC(=O)N3CCc4ccccc4C3)O[C@@H](CO)[C@@H]1O2)C1CCOCC1	2	7
N#C[C@@H]1N[C@@H](CO)[C@H]1c1ccc(C#CC2CCCC2)cc1	-5	9
COc1ccc(S(=O)(=O)Nc2cccc3c2O[C@H](CN(C)Cc2ccccc2)[C@H](C)CN([C@@H](C)CO)C3=O)cc1	8	4
C[C@@H]1CN([C@H](C)CO)C(=O)c2cc(NC(=O)Nc3ccc4c(c3)OCO4)ccc2O[C@@H]1CN(C)Cc1ccc(Cl)c(Cl)c1	-2	-4
COc1ccc(S(=O)(=O)N(C)C[C@H]2Oc3ccc(NC(=O)Nc4ccc(F)cc4)cc3C(=O)N([C@H](C)CO)C[C@H]2C)cc1	-31	-20
Cc1ccc(S(=O)(=O)Nc2ccc3c(c2)CC(=O)N([C@@H](C)CO)C[C@@H](C)[C@H](CN(C)S(=O)(=O)c2ccc(C)cc2)O3)cc1	-20	-10
CC(=O)N1CC(=O)N2[C@@H](CO)[C@H](c3ccc(C#CC(C)C)cc3)[C@@H]2C1	40	2
C[C@H]1CN([C@@H](C)CO)C(=O)c2cccc(NC(=O)C3CCCCC3)c2O[C@@H]1CN(C)C(=O)Nc1ccc(C(F)(F)F)cc1	-16	-19
O=C(Nc1ccc(C(F)(F)F)cc1)Nc1ccc2c(c1)[C@H]1C[C@@H](CC(=O)N3CCc4ccccc4C3)O[C@H](CO)[C@H]1O2	-32	-11
COc1ccc(S(=O)(=O)N(C)C[C@@H]2Oc3ccc(NC(=O)c4ccncc4)cc3CC(=O)N([C@@H](C)CO)C[C@H]2C)cc1	7	11
C[C@@H]1CN([C@@H](C)CO)C(=O)c2cc(NC(=O)Nc3cccc4ccccc34)ccc2O[C@@H]1CN(C)S(=O)(=O)c1ccc(Cl)cc1	9	4
O=C(c1cnccn1)N1C[C@H]2[C@@H](c3ccccc31)[C@@H](CO)N2Cc1ccc2c(c1)OCO2	4	0
CO[C@@H](CN(C)Cc1cc(F)ccc1F)[C@@H](C)CN(C(=O)Nc1ccc(C(F)(F)F)cc1)[C@H](C)CO	0	6
C[C@@H]1CN([C@@H](C)CO)C(=O)Cc2cc(NS(=O)(=O)c3ccc(Cl)cc3)ccc2O[C@H]1CN(C)S(=O)(=O)c1ccc(F)cc1	7	9
CC(C)C#Cc1cnc2c(c1)C(=O)N([C@@H](C)CO)C[C@@H](C)[C@H](CN(C)S(=O)(=O)c1cn(C)cn1)O2	19	8
COc1ccc2c3c([nH]c2c1)[C@@H](CO)N(Cc1ccccc1Cl)CC31CN(C(=O)C2CC2)C1	17	9
C[C@@H]1CN([C@@H](C)CO)C(=O)c2cccc(N(C)C)c2O[C@@H]1CN(C)S(=O)(=O)c1ccccc1	19	12
COC(=O)c1cn(CCCNC(=O)[C@H](Cc2ccccc2)NS(=O)(=O)c2ccc(C)cc2)nn1	8	2
C[C@@H]1CN([C@H](C)CO)C(=O)c2cc(NS(=O)(=O)c3cccs3)ccc2O[C@H]1CN(C)S(=O)(=O)c1cn(C)cn1	27	40
O=C(Nc1ccc2c(c1)[C@H]1C[C@H](CC(=O)N3CCCCC3)O[C@@H](CO)[C@H]1O2)c1cccnc1	17	9
O=C(C[C@H]1C[C@@H]2c3cc(NC(=O)c4cccnc4)ccc3O[C@@H]2[C@H](CO)O1)NCc1cc(F)ccc1F	13	20
CO[C@H]1CN(C)C(=O)c2ccc(NS(=O)(=O)c3ccc(Cl)cc3)cc2OC[C@H](C)NC[C@H]1C	8	-1
C[C@H]1CN([C@@H](C)CO)S(=O)(=O)c2ccc(C#CC3CC3)cc2O[C@@H]1CN(C)Cc1ccccn1	?	/

Further compounds
SMILES	Vaccinia stage	Vaccinia stage Venus
CCC(=O)Nc1ccc2c(c1)C(=O)N(C)[C@@H]1CC[C@@H](CC(=O)NCc3ccccc3)O[C@@H]1CO2	2	6
O=C(Nc1ccccc1)N1CCCCN2[C@H](CO)[C@H](c3ccc(C4=CCCCC4)cc3)[C@@H]2C1	-22	-12
Cc1noc(C)c1S(=O)(=O)N(C)C[C@H]1OCCCC[C@@H](C)Oc2ccc(NC(=O)Nc3cccc4ccccc34)cc2C(=O)N([C@@H](C)CO)C[C@@H]1C	-1	-1
Cc1ccc(S(=O)(=O)Nc2cccc3c2O[C@H](CN(C)S(=O)(=O)c2cccs2)[C@@H](C)CN([C@@H](C)CO)C3=O)cc1	2	3
C[C@H]1CN([C@@H](C)CO)C(=O)c2cccc(NC(=O)Nc3ccc(F)cc3)c2O[C@@H]1CN(C)S(=O)(=O)c1ccc(F)cc1	-10	-5
CC(C)NC(=O)N[C@H]1CC[C@H](CC(=O)NCCN2CCCC2)O[C@@H]1CO	6	6
CC(C)CC#Cc1cnc2c(c1)C(=O)N([C@H](C)CO)C[C@@H](C)[C@@H](CN(C)C(=O)Nc1cccc(F)c1)O2	-29	-21
CCC(=O)N1CC(=O)N2[C@@H](CO)[C@@H](c3ccc(C#CC4CCCC4)cc3)[C@@H]2C1	-15	-8
C[C@H](CO)N1C[C@H](C)[C@@H](CN(C)C(=O)Cc2cccnc2)Oc2ncc(/C=C/c3ccccc3)cc2C1=O	4	-3
C[C@@H]1CCCCO[C@H](CN(C)C(=O)Nc2cccc3ccccc23)[C@@H](C)CN([C@H](C)CO)C(=O)c2cc(NC(=O)Nc3ccc4c(c3)OCO4)ccc2O1	22	12
COCC#Cc1ccc2c(c1)O[C@@H](CN(C)S(=O)(=O)c1ccc(C)cc1)[C@@H](C)CN([C@H](C)CO)S2(=O)=O	-14	-4
C[C@H](CO)N1C[C@H](C)[C@@H](CN(C)CC2CC2)Oc2cc(C#CC(C)(C)O)ccc2S1(=O)=O	-10	-13
CO[C@@H]1CN(C)C(=O)c2cc(NC(=O)c3ccno3)ccc2OC[C@@H](C)NC[C@@H]1C	7	32
C[C@@H]1CN([C@H](C)CO)C(=O)c2cc(NC(=O)Nc3ccc(C(F)(F)F)cc3)ccc2O[C@@H](C)CCCCO[C@H]1CN(C)S(=O)(=O)c1ccc(F)cc1	-6	-2
C[C@H](CO)N1C[C@H](C)[C@@H](CN(C)Cc2ccccc2F)Oc2ncc(C3=CCCC3)cc2C1=O	-18	-24
C[C@H](CO)N1C[C@H](C)[C@@H](CN(C)Cc2cccnc2)OCc2ccccc2-c2c(n(C)c3ccccc23)C1=O	-16	-27
CO[C@@H]1CN(C)C(=O)c2ccc(NC(C)=O)cc2OC[C@@H](C)N(C(=O)CN2CCOCC2)C[C@@H]1C	-4	3
Cc1noc(C)c1NC(=O)N1C[C@H](O)COC[C@@H]2O[C@H](CC(=O)NCC3CC3)CC[C@H]21	-3	0
COCC(=O)Nc1ccc2c(c1)C(=O)N(C)[C@H]1CC[C@H](CC(=O)Nc3ccc(F)cc3)O[C@@H]1CO2	7	4
C[C@@H]1CN([C@@H](C)CO)C(=O)c2cccc(NC(=O)Nc3ccc4c(c3)OCO4)c2O[C@H]1CN(C)Cc1ccc(Oc2ccccc2)cc1	14	12
CCCN1[C@@H]2Cn3c(ccc(-c4cccnc4)c3=O)[C@H]1[C@@H](C(=O)NC1CCC1)[C@@H]2CO	-1	5
C[C@H](CO)N1C[C@H](C)[C@H](CN(C)C(=O)Cc2ccccc2)Oc2ncc(-c3ccc(F)cc3)cc2C1=O	-11	-6
CC(C)NC(=O)N(C)C[C@@H]1OCCCC[C@@H](C)Oc2ccc(NC(=O)Nc3cccc4ccccc34)cc2C(=O)N([C@H](C)CO)C[C@@H]1C	31	16
COc1ccc(-c2cnc3c(c2)C(=O)N([C@H](C)CO)C[C@H](C)[C@H](CN(C)C(=O)Cc2ccccn2)O3)cc1	9	7
CO[C@H](CN(C)Cc1cc(F)ccc1F)[C@H](C)CN(C(=O)Nc1ccc(F)cc1)[C@@H](C)CO	0	4

13 entries out of the list, arranged by SMILES length, ascending:
SMILES	Vaccinia stage	Vaccinia stage Venus
CC(C)NC(=O)N[C@H]1CC[C@H](CC(=O)NCCN2CCCC2)O[C@@H]1CO	6	6
CO[C@@H]1CN(C)C(=O)c2cc(NC(=O)c3ccno3)ccc2OC[C@@H](C)NC[C@@H]1C	7	32
CCC(=O)N1CC(=O)N2[C@@H](CO)[C@@H](c3ccc(C#CC4CCCC4)cc3)[C@@H]2C1	-15	-8
COc1ccc2c3c([nH]c2c1)[C@@H](CO)N(Cc1ccccc1Cl)CC31CN(C(=O)C2CC2)C1	17	9
CCCN1[C@@H]2Cn3c(ccc(-c4cccnc4)c3=O)[C@H]1[C@@H](C(=O)NC1CCC1)[C@@H]2CO	-1	5
COc1ccc(-c2cnc3c(c2)C(=O)N([C@H](C)CO)C[C@H](C)[C@H](CN(C)C(=O)Cc2ccccn2)O3)cc1	9	7
CC(C)C#Cc1cnc2c(c1)C(=O)N([C@@H](C)CO)C[C@@H](C)[C@H](CN(C)S(=O)(=O)c1cn(C)cn1)O2	19	8
C[C@@H]1CN([C@H](C)CO)C(=O)c2cc(NS(=O)(=O)c3cccs3)ccc2O[C@H]1CN(C)S(=O)(=O)c1cn(C)cn1	27	40
COc1ccc(S(=O)(=O)N(C)C[C@@H]2Oc3ccc(NC(=O)c4ccncc4)cc3CC(=O)N([C@@H](C)CO)C[C@H]2C)cc1	7	11
Cc1ccc(S(=O)(=O)Nc2cccc3c2O[C@H](CN(C)S(=O)(=O)c2cccs2)[C@@H](C)CN([C@@H](C)CO)C3=O)cc1	2	3
C[C@H]1CN([C@@H](C)CO)C(=O)c2cccc(NC(=O)C3CCCCC3)c2O[C@@H]1CN(C)C(=O)Nc1ccc(C(F)(F)F)cc1	-16	-19
C[C@@H]1CN([C@H](C)CO)C(=O)c2cc(NC(=O)Nc3ccc4c(c3)OCO4)ccc2O[C@@H]1CN(C)Cc1ccc(Cl)c(Cl)c1	-2	-4
Cc1noc(C)c1S(=O)(=O)N(C)C[C@H]1OCCCC[C@@H](C)Oc2ccc(NC(=O)Nc3cccc4ccccc34)cc2C(=O)N([C@@H](C)CO)C[C@@H]1C	-1	-1

New compounds follow.
SMILES	Vaccinia stage	Vaccinia stage Venus
O=C(C1CC1)N1CC2(C1)[C@H](c1ccccc1)[C@@H](CO)N2CCC(F)(F)F	12	5
COc1ccc(S(=O)(=O)N(C)C[C@H]2Oc3cc(C4=CCCC4)ccc3S(=O)(=O)N([C@@H](C)CO)C[C@H]2C)cc1	-20	-18
O=C(C[C@@H]1CC[C@H](NC(=O)c2ccc(F)cc2)[C@H](CO)O1)NCCc1ccccc1	4	-2
COc1ccc(S(=O)(=O)Nc2ccc3c(c2)CC(=O)N([C@H](C)CO)C[C@H](C)[C@H](CN(C)S(C)(=O)=O)O3)cc1	7	3
COc1ccc(NC(=O)Nc2ccc3c(c2)C(=O)N([C@H](C)CO)C[C@H](C)[C@@H](CN(C)S(=O)(=O)c2ccccc2)OCCCC[C@H](C)O3)cc1	-8	-10
O=C(Nc1ccccc1F)N1CCCCN2[C@H](CO)[C@@H](c3ccc(C#Cc4cccnc4)cc3)[C@H]2C1	-11	-6
Cc1noc(C)c1S(=O)(=O)Nc1ccc2c(c1)CC(=O)N([C@H](C)CO)C[C@@H](C)[C@@H](CN(C)Cc1ccc(C(=O)O)cc1)O2	9	16
COc1ccc(NC(=O)N2CCCCN3[C@@H](CO)[C@@H](c4ccc(C#Cc5ccccc5)cc4)[C@@H]3C2)cc1	?	/
O=C(C[C@H]1CC[C@H](NC(=O)C2CCOCC2)[C@H](CO)O1)NCC1CC1	13	14
O=C(C[C@H]1C=C[C@H](NC(=O)CN2CCOCC2)[C@@H](CO)O1)NC1CCC1	-2	-3
O=C(C[C@@H]1C=C[C@H](NC(=O)Cc2ccccn2)[C@H](CO)O1)NCCc1ccccc1	4	3
Cc1ccc(S(=O)(=O)N(C)C[C@@H]2OCCCC[C@@H](C)Oc3ccc(NC(=O)Nc4c(C)noc4C)cc3C(=O)N([C@H](C)CO)C[C@@H]2C)cc1	35	24
CCCN(C)C[C@H]1Oc2cc(C#Cc3ccncc3)ccc2S(=O)(=O)N([C@@H](C)CO)C[C@H]1C	-19	-21
O=C(C[C@H]1C=C[C@@H](NC(=O)C2CCOCC2)[C@@H](CO)O1)Nc1ccc(-c2ccccc2)cc1	-16	-11
COc1ccc2c3c([nH]c2c1)[C@H](CO)N(Cc1ccccc1F)CC31CCN(C)CC1	-33	-22
C[C@@H]1CCCCO[C@H](CN(C)CC2CCCCC2)[C@H](C)CN([C@H](C)CO)C(=O)c2cc(NC(=O)Nc3ccc(F)cc3)ccc2O1	?	/
C[C@@H]1CN([C@H](C)CO)C(=O)Cc2cc(NC(=O)NC3CCCCC3)ccc2O[C@H]1CN(C)CC1CCCCC1	?	/
CO[C@H]1CN(C)C(=O)c2cc(NC(=O)Nc3cccc(F)c3)ccc2OC[C@H](C)N(C)C[C@@H]1C	-26	-28
CCCN(C)C[C@H]1Oc2ncc(-c3ccccc3F)cc2C(=O)N([C@@H](C)CO)C[C@H]1C	-19	-22
C=CCN1C(=O)[C@@]2(O[C@@H](CCO)[C@H]([Si](C)(C)c3ccc(OC)cc3)[C@H]2C)c2cc(N3CCOC3=O)ccc21	-15	-6
C[C@@H]1CN([C@H](C)CO)S(=O)(=O)c2ccc(-c3ccc(F)cc3)cc2O[C@H]1CN(C)C(=O)C1CCCCC1	?	/
CN(C)C(=O)c1ccc(-c2ccc([C@@H]3[C@@H](C#N)N(S(C)(=O)=O)[C@H]3CO)cc2)cc1	12	6
C/C=C/c1ccc2c(c1)O[C@H](CN(C)CCC)[C@H](C)CN([C@@H](C)CO)S2(=O)=O	-4	-10
C[C@H]1CN([C@@H](C)CO)S(=O)(=O)c2ccc(C#CC3CC3)cc2O[C@H]1CN(C)C(=O)CN(C)C	1	3
COc1ccc(NC(=O)Nc2ccc3c(c2)[C@@H]2C[C@H](CC(=O)NCCc4ccccc4)O[C@@H](CO)[C@@H]2O3)cc1	-12	-1
